# Screens (PubChem BioAssay)
# FUS yeast rescue – rescues growth of FUS-expressing yeast | S. cerevisiae FUS-expressing, growth rescue, OD600, 24 h | Potency, µM (doses to about 76.6 µM), inactives show at the top dose growth rescue (activation), usual class: activators | actives 0.24% (n = 390,000);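 also: potency is read from the fitted curve at half-maximal effect; plate controls were DMSO vehicle for no effect and reference control for full effect; nearly all actives have a fitted effect of over 55% in size; some results filed as inactive show a strong effect at the top dose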
#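 Absorbance at 600 nm, taken 24hr after compound addition, measured rescue of FUS-yeast growth at 30C. Induction used 2% galactose with seeding at OD 0.005. Controls: CP55940 from 92uM final, DMSO only.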
# WRN helicase inh – WRN helicase (human) inhibition | Q14191 | WRN helicase unwinding, fluorescent forked duplex, kinetic | Potency, µM (highest dose often 114 µM), for the others: at the top dose activity change, negative = inhibition, usual class: inhibitors | actives 0.46% (n = 360,000) | AID 651768; also: potency is read from the fitted curve at half-maximal effect; % is scaled to controls: 0 for no effect and ±100 for the full control effect; nearly all actives have a fitted effect of over 55% in size
# Target sequence (Q14191 whole entry, looked up): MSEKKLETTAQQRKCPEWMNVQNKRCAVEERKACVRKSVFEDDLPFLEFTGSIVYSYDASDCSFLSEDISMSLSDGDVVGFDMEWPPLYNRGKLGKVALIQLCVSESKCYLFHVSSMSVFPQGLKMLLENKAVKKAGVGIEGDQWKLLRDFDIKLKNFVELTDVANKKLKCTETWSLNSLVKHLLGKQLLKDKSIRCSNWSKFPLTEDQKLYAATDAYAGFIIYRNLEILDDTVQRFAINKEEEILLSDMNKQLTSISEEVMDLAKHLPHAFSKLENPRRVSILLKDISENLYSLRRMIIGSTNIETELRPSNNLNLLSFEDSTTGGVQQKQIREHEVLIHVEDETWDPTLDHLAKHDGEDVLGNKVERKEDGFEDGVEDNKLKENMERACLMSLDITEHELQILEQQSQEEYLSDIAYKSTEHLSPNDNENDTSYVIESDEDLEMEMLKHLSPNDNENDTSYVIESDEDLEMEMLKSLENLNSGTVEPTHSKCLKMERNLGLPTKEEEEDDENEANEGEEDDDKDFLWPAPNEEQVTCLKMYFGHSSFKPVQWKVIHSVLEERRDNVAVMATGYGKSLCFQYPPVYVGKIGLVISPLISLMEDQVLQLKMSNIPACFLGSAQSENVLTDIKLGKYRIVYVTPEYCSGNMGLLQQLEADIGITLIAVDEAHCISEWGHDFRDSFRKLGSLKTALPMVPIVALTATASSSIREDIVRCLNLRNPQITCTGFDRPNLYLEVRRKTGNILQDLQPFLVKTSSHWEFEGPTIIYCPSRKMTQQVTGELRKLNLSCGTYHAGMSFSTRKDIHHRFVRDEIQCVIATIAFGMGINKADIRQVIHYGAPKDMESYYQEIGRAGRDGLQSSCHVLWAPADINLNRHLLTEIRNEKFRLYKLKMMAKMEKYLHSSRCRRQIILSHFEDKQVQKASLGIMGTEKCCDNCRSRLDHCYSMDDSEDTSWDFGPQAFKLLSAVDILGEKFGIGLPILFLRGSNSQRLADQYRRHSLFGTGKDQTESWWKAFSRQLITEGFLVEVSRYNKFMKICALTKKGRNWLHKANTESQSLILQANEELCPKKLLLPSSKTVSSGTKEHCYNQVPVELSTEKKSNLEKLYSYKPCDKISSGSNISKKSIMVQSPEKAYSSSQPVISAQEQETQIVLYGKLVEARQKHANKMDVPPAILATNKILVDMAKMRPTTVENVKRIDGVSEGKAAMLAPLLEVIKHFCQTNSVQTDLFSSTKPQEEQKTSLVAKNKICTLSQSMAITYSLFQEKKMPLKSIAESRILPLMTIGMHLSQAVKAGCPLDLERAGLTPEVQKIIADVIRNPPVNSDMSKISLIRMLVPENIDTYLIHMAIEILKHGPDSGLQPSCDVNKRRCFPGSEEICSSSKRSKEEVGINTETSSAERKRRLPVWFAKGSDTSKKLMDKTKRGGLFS
#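 Screening of the MLSMR collection measured strand separation of a quenched forked DNA duplex (100 nM) by 20 nM WRN with 2 mM ATP, all final. Compounds were preincubated with enzyme 15 min at room temperature.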
# EPAC1 antag – blocks human EPAC1 exchange factor; AID 720709; O95398; actives 0.14% (n = 360,000); Potency, µM (highest dose often 115 µM), inactives show top-dose activity change, negative = inhibition, hits mostly inhibitors; EPAC1 GEF assay, Rap1b-BODIPY-GDP exchange fluorescence;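 also: potency is read from the fitted curve at half-maximal effect; plate controls were vehicle for no effect and positive control for full effect; nearly all actives have a fitted effect of over 50% in size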
# IL-2 act – activators of IL-2; actives 0.065% (n = 360,000); IL-2 activation reporter assay, cell-based qHTS; stimulated with anti-CD3/CD4/CD28 beads; in transgenic mouse T cells; AID 652025; activation, % (series mostly up to about 46 µM); in the data active = activation above about 50%; inconclusive = mostly about 30% to 49%; also: 0% is about no effect
#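 Readout: EGFP and DsRed signals by fluorescent plate cytometry. Unstimulated transgenic mouse T cells received compound 60 min before antibody-bead stimulation, then incubated 18 h at 37 degrees C.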
# PLK1 PBD inh – blocks phosphopeptide binding to human PLK1 polo-box domain; P53350; Plk1 PBD binding of FITC phosphopeptide, fluorescence polarization; Potency, µM, without a hit: max response, negative = inhibition, usual class: inhibitors; actives 2.8% (n = 360,000); AID 720504; also: potency is read from the fitted curve at half-maximal effect; series mostly up to about 57 µM; % is scaled to controls: 0 for no effect and ±100 for the full control effect; nearly all actives have a fitted effect of over 65% in size
# EPAC1 ag – EPAC1 (human) agonism | O95398 | EPAC1 agonist qHTS, biochemical assay; response scale: 100% = response to 6.5 mM cAMP | Potency, µM (doses to about 154 µM), inactives show at the top dose activation, most hits filed as activators | actives 0.073% (n = 360,000) | AID 720707; also: potency is read from the fitted curve at half-maximal effect; nearly all actives have a fitted effect of over 60% in size
#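 EPAC1 100 nM, Rap1B–BODIPY-GDP 250 nM, unlabeled GDP 50 uM; compound titration; 5 min RT; kinetic read ex480/em540 at 5-min intervals ×30 min; data normalized to 6.5 mM cAMP agonist control.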
# Abeta rescue – A-beta toxicity reversal in yeast. yeast expressing A-beta42, growth rescue, OD600, 48 h; response scale: 0% DMSO, 100% iron-clioquinol control. Potency, µM (series often up to 46.1 µM), without a hit: top-dose growth rescue, actives largely listed as activators. AID 1347071. actives 0.063% (n = 410,000); also: potency is read from the fitted curve at half-maximal effect; nearly all actives have a fitted effect of over 55% in size
#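 Growth rescue measured by 600 nm absorbance after 48 h yeast culture at 30 C with compound. Values normalized between DMSO and an equimolar ferric chloride plus clioquinol control.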
# * marks the source's active call; other numbers are inactive results; ? = inconclusive; / = no result given; [ ] = remark or other dose. Unless noted, calls follow the shape of the dose curve; as a rule, active = well fitted curve in the direction sought with a large enough effect; inconclusive = small, poorly fitted or top-dose-only effect, or another doubt; inactive = no such curve, though single readings can be large; an effect the other way counts as inactive or inconclusive. An excerpt; rates above refer to the full screens.
no.	SMILES	FUS yeast rescue	WRN helicase inh	EPAC1 antag	IL-2 act
1	Clc1ccccc1-c1nc(-c2ccccc2)n[nH]1	15%	-2%	-7%	0.2
2	CC1=CCCC(C)(C)C1/C=C/C(C)=N/NC(=O)c1ccncc1 (stereo not drawn)	3%	7%	-9%	0.8
3	CC(=O)N1CCc2c(sc(NC(=O)c3ccc(S(=O)(=O)N(C)C)cc3)c2C#N)C1	-7%	5%	-11%	-1.5
4	COc1cccc(/C(O)=C2/C(=O)C(=O)N(CCN(C)C)C2c2ccc(Br)cc2)c1 (stereo not drawn)	7%	3%	-4%	-1.6
5	CCC(=O)Nc1ccc(NCc2cccs2)cc1	15%	-29%	-2%	1.6
6	O=C(CCCSc1ccccc1)Nc1nc(-c2ccccn2)cs1	33%	-27%	17%	-0.2
7	CCOC(=O)Cc1cc(=O)n(-c2nc3ccccc3s2)[nH]1	34%	-29%[57.1 µM]	?	-1.4
8	NNC(=O)c1cc2nc(-c3cccs3)cc(C(F)(F)F)n2n1	4%	2%	-5%	0.2
9	COc1ccc2cc(C3=CC(=O)CC(C)(C)C3=O)ccc2c1	-13%	14%	8%	-2.4
10	Nc1nc2nc(-c3cccs3)cc(C(F)(F)F)n2n1	7%	-24%	3%	1.8
11	C[C@@H]1COc2cc(N(C)CCO)ccc2S(=O)(=O)N1	-20%	-12%	-6%	2.2
12	C=CCn1c(SCC(=O)Nc2ccc(S(N)(=O)=O)cc2)nnc1-c1cnccn1	37%	1%	-18%	-4.5
13	CCOC(=O)Cn1c(C)cc(=O)c2ccccc21	-1%	6%[57.1 µM]	6%	-2.7
14	Cc1ccc(NC(=O)c2c(NC(=O)CCC(=O)O)sc3c2CCCCC3)cc1	43%	?	?	-0.5
15	Cc1ccc(OCCCC(=O)Nc2ccc(S(N)(=O)=O)cc2)cc1	13%	-3%	-4%	0.8

no.	PLK1 PBD inh	EPAC1 ag	Abeta rescue
1	-5%	2%	-4%
2	-1%	6%	2%
3	0%	-2%	30%
4	?	13%	-9%
5	-12%	11%	4%
6	21µM*	13%	-11%
7	-1%	1%	-20%
8	-12%	-5%	-18%
9	-5%	-2%	-3%
10	14%	8%	-14%
11	-6%	-9%	-6%
12	-8%	-18%	-6%
13	2%	8%	1%
14	?	-1%	5%
15	-10%	-5%	-7%

# Next section:
no.	SMILES	FUS yeast rescue	WRN helicase inh	EPAC1 antag	IL-2 act
16	Cc1cccc(C)c1NC(=O)CSc1nnc(-c2ccco2)n1N	16%	-12%	5%	1.4
17	O=C(NCCNC1CCCCC1)c1ccco1	-8%	?	1%	1.2
18	COc1ccc(-c2cc3ccccc3oc2=O)cc1NC(=S)NC(=O)c1ccc2c(c1)OCCO2	6%	-6%	-1%	-1.4
19	COCCn1c(=O)[nH]c2cc(C(=O)Nc3cc(C)cc(C)c3)ccc2c1=O	21%	-2%	2%	0.9
20	CN1CCN(C(=O)/C=C\c2ccc(Cl)cc2)CC1	/	-11%	3%	-3.8
21	COc1ccccc1CNC(=O)Nc1cccs1	35%	-17%	8%	0.0
22	CCOC(=O)c1cc(Br)c(=O)n2ccccc12	/	-21%	10%	-1.2
23	COC(=O)c1sc(NC(=O)CSc2nncs2)c(C(=O)OC)c1C	18%	-12%	3%	-0.8
24	COC(=O)c1nc2nc(-c3cccs3)cc(C(F)(F)F)n2n1	3%	-2%	-6%	-3.5
25	CCOc1cc(S(=O)(=O)NCCN2CCOCC2)c(C)cc1C	-36%	-10%	2%	-5.0
26	CN(CC(=O)Nc1cccc(F)c1)C(=O)c1cc(-c2ccco2)nc2ccccc12	?	?	?	-3.8
27	COc1ccc(/C=C/C(=O)c2cc(F)ccc2OC(=O)c2ccccc2C)cc1OC	27%	-33%[57.1 µM]	?	-1.4
28	COc1cc(/C=C/C(=O)O)cc(S(=O)(=O)NNC(=O)c2cc(C)oc2C)c1OC	3%	-28%	1%	-0.9
29	COC(=O)c1ccccc1NC(=O)Cn1cnc2ccc(S(=O)(=O)N3CCC(C)CC3)cc2c1=O	-28%	-13%	4%	-0.2
30	COC(=O)CSc1nnc(NC(=O)C2CC(=O)N(c3ccc(F)cc3)C2)s1 (stereo not drawn)	19%	-25%	4%	-0.3

no.	PLK1 PBD inh	EPAC1 ag	Abeta rescue
16	-1%	-3%	-2%
17	-8%	0%	-9%
18	-15%	-9%	0%
19	-4%	-10%	-11%
20	-4%	2%	-1%
21	-28%	-7%	14%
22	-5%	3%	-6%
23	0%	0%	-21%
24	0%	1%	2%
25	-4%	-5%	6%[9.22 µM]
26	34µM*	2%	-14%
27	-2%	11%	-2%
28	?	-2%	-7%
29	-6%	4%	6%
30	-25%	3%	5%

# Reformatted with one line to a screen: five of the compounds above.
25) CCOc1cc(S(=O)(=O)NCCN2CCOCC2)c(C)cc1C
26) CN(CC(=O)Nc1cccc(F)c1)C(=O)c1cc(-c2ccco2)nc2ccccc12
27) COc1ccc(/C=C/C(=O)c2cc(F)ccc2OC(=O)c2ccccc2C)cc1OC
28) COc1cc(/C=C/C(=O)O)cc(S(=O)(=O)NNC(=O)c2cc(C)oc2C)c1OC
29) COC(=O)c1ccccc1NC(=O)Cn1cnc2ccc(S(=O)(=O)N3CCC(C)CC3)cc2c1=O
Compound | 25 | 26 | 27 | 28 | 29
FUS yeast rescue | -36% | ? | 27% | 3% | -28%
WRN helicase inh | -10% | ? | -33%[57.1 µM] | -28% | -13%
EPAC1 antag | 2% | ? | ? | 1% | 4%
IL-2 act | -5.0 | -3.8 | -1.4 | -0.9 | -0.2
PLK1 PBD inh | -4% | 34µM* | -2% | ? | -6%
EPAC1 ag | -5% | 2% | 11% | -2% | 4%
Abeta rescue | 6%[9.22 µM] | -14% | -2% | -7% | 6%

# Additional records follow.
no.	SMILES	FUS yeast rescue	WRN helicase inh	EPAC1 antag	IL-2 act
31	O=C(Nc1ccccc1)Nc1ncc([N+](=O)[O-])s1	15%	-3%	?	-6.9
32	CCn1c(SC(C)C(=O)NCC2CCCO2)nc2scc(-c3ccccc3)c2c1=O (stereo not drawn)	34%	-8%	11%	-6.0
33	COc1ccc(C2/C(=C(/O)c3cnn(-c4ccccc4)c3C)C(=O)C(=O)N2CCN(C)C)cc1OC (stereo not drawn)	24%	2%	-3%	0.3
34	CCc1cc2c(COC(=O)c3c(C)noc3C)cc(=O)oc2cc1O	2%	-6%	11%	-0.8
35	COc1ccccc1OCc1nnc(SCC(=O)Nc2ccc(C)cc2)n1C	2%	2%	-3%	0.1
36	Cc1nnc(NC(=O)CSc2nnc(CNC(=O)C34CC5CC(CC(C5)C3)C4)n2C2CCCCC2)s1	-25%	-2%	7%	-1.4
37	COc1ccc(Nc2ncccc2C(=O)Nc2ccccc2)cc1	3%	-31%	-12%	-0.5
38	O=C(COc1ccc(-c2nnco2)cc1)N1CCOCC1	/	-3%	0%	-0.9
39	Nc1nc2nccc(-c3ccco3)n2n1	6%	1%	6%	-0.1
40	O=C(OC1CCCCC1=O)c1cc(S(=O)(=O)N2CCOCC2)ccc1F (stereo not drawn)	0%	7%	-1%	-0.1
41	NC(=O)C(c1ccc(Cl)cc1)c1ccc(Sc2ccccc2)nn1 (stereo not drawn)	20%	-1%	-20%	0.3
42	O=C(NN=Cc1ccccc1C(=O)O)c1ccc(NS(=O)(=O)c2cccs2)cc1	25%	-3%	14%	-0.6
43	CCOC(=O)N1CCC(NC(=O)C(Cc2ccccc2)NC(=O)c2ccco2)CC1 (stereo not drawn)	7%	-1%	-15%	-0.6
44	COc1ccc2oc(C(=O)OCC(=O)NC(=O)c3ccccc3)c(C)c2c1	-5%	0%	7%	-3.5
45	O=C(OCC(=O)c1c[nH]c2ccccc12)c1cc(S(=O)(=O)N2CCOCC2)ccc1F	/	-2%	5%	-0.1

no.	PLK1 PBD inh	EPAC1 ag	Abeta rescue
31	?	-17%	-16%
32	4%	-1%	13%
33	-9%	9%	-5%
34	-16%	-4%	15%
35	2%	2%	18%
36	-10%	5%	6%
37	2.7µM*	12%	0%
38	-1%	4%	8%
39	-7%	5%	3%
40	-7%	-2%	-22%
41	-7%	5%	12%
42	-13%	8%	1%
43	-16%	12%	-4%
44	-13%	-4%	3%
45	3%	-1%	13%

# (listing goes on)
no.	SMILES	FUS yeast rescue	WRN helicase inh	EPAC1 antag	IL-2 act
46	O=C(CN1CCN(S(=O)(=O)c2ccccc2C(F)(F)F)CC1)NCc1cccs1	12%	5%	-27%	-3.5
47	COc1ccc(-c2cnnn2-c2ccc(NC(=O)/C=C/c3ccc(OC)c(OC)c3)cc2)cc1	/	4%	-2%	-0.6
48	CC(C)c1ccc(C2CC(=O)N3CN(C)CSC3=C2C#N)cc1 (stereo not drawn)	-4%	3%	-13%	-1.4
49	Nc1nnc(SCC(=O)Nc2cccnc2Cl)s1	-3%	-17%	?	-1.0
50	CN(CC(=O)Nc1ccc(F)cc1)C(=O)CCc1nc2sc3c(c2c(=O)[nH]1)CCCC3	25%	-4%[11.6 µM]	-9%	-1.1
51	NC(=O)c1cccc(-c2ccnc3c2CC(C(=O)NCc2ccco2)O3)c1 (stereo not drawn)	-21%	6%	3%	0.1
52	Cc1ccc(C)c(NCCCCCCCC(=O)O)c1	-24%	-2%	4%	1.1
53	CC(=O)N1CCc2cc(C(=O)CN3CCN(C(=O)c4ccco4)CC3)ccc21	-1%	-6%	-4%	-0.9
54	O=C(CCS(=O)(=O)c1ccccc1)Nc1ncc([N+](=O)[O-])s1	17%	-4%	25%	-0.6
55	CCCCSc1nsc(NC(C)=O)n1	-3%	-4%	-7%	-0.7
56	CCCSc1nsc(NC(=O)CC)n1	-7%	7%	-12%	-3.7
57	CC(C)(C)S(=O)(=O)N1C[C@H]2CC/C=C\C/C(c3ccccc3)=C\2[C@@H]1CCO	17%	-2%	-3%	0.6
58	COCCCn1c(C(=O)Nc2ccc3c(c2)OCO3)cc2c(=O)n3ccccc3nc21	-13%	-6%	-14%	-3.5
59	O=C(CSc1nnc(NC(=O)C2CC(=O)N(c3ccc(F)cc3)C2)s1)NCc1ccco1 (stereo not drawn)	?	?	?	-0.6
60	CCCCCn1c(=NC(C)=O)c(C#N)cc2c(=O)n3ccccc3nc21	-13%	-2%	-5%	-2.0

no.	PLK1 PBD inh	EPAC1 ag	Abeta rescue
46	-10%	2%	6%
47	-20%	17%	9%
48	4.7µM*	1%	-4%
49	0%	-48%[inhibitor]	-8%
50	-8%	5%	-17%
51	7%	-9%	-9%
52	0%	-1%	26%
53	-13%	-6%	-14%
54	-45%	0%	-28%
55	3%	11%	8%
56	-20%	2%	?
57	-8%	-11%	-5%
58	3µM*	17%	18%
59	?	-4%	9%
60	-25%	4%	-7%
